# Assay outcomes: PubChem, National Center for Advancing Translational Sciences (NCATS)
# Vaccinia Venus: vaccinia inhibition (Venus reporter); Potency, µM (top dose mostly 36.5 µM), inactives show top-dose activity change, negative = inhibition, most hits filed as inhibitors; actives 0.46% (n = 330,000); Vaccinia virus Venus reporter expression, fluorescence; AID 720580; active means well fitted inhibition curve with a large enough effect; inconclusive means small, poorly fitted or top-dose-only effect; inactive means no such curve, though single readings can be large or run the other way; tested in A549 cells; note: nearly all actives have a fitted effect of over 30% in size; inactives centre near -10
# Vaccinia mCherry: vaccinia inhibition (mCherry reporter) | Potency, µM (doses to about 36.5 µM), inactives show at the top dose activity change, negative = inhibition, hits mostly inhibitors | AID 720579 | Vaccinia virus mCherry reporter infection, fluorescence; about a quarter of the inactives have no number | actives 0.63% (n = 310,000); active = well fitted inhibition curve with a large enough effect; inconclusive = small, poorly fitted or top-dose-only effect; inactive = no such curve, though single readings can be large or run the other way; tested in A549 cells; note: nearly all actives have a fitted effect of over 35% in size; inactives centre near -10
# * hit, by the source's call; i = inactive; u = inconclusive; x = no result given; & = joins results of further samples; [ ] = dose if it differs, or a comment. % is set by controls: 0 for no effect and ±100 for the full control effect; potency is the fitted concentration of half-maximal effect. Hits appear at their usual frequency. About 0.88% of those tested had a hit in this group.
SMILES,Vaccinia Venus,Vaccinia mCherry
Cc1ccc(CN2[C@H]3CCCC[C@@H]3OCCS2(=O)=O)cc1,-14.9%,i
O=C1NC(NS(=O)(=O)c2ccc(Cl)cc2)(C(F)(F)F)C(=O)N1Cc1cccnc1 (centres undefined),-2.4%,-11.2%
CCn1c(SCC(=O)Nc2ccc(S(=O)(=O)Nc3ccccn3)cc2)nnc1-c1ccncc1,-14.0%,x
Cc1onc(-c2ccccc2Cl)c1C(=O)Nc1c(C)n(C)n(-c2ccccc2)c1=O,-14.3%,-22.1%
C/C(=N\O)c1oc2ccc3c(C)cc(=O)oc3c2c1C,-2.5%,i
CC(=O)Nc1nonc1-c1nnc(SCC(=O)Nc2cccc(C)c2C)n1-c1ccccc1,-4.3%,-5.9%
Nc1nncn1C(=O)c1cc(Br)ccc1Cl,0.1%,-2.0%
Cn1cccc1/C=N/NC(=O)Cc1cccs1,-14.0%,i
CC(=O)Cc1nsc(NC(=O)c2ccc(Cl)cc2Cl)n1,-9.3%,-8.5%
Cc1nc2cc(NC(=O)[C@@H]3C[C@@H](Sc4ccccn4)CN3Cc3ccc4c(c3)OCCO4)ccc2s1,4.9%,9.5%

# Entries of single compounds, looked up by structure. Order of screens: Vaccinia Venus	Vaccinia mCherry
# Shown for C/C(=N\O)c1oc2ccc3c(C)cc(=O)oc3c2c1C → -2.5%	i
# Shown for CC(=O)Cc1nsc(NC(=O)c2ccc(Cl)cc2Cl)n1 → -9.3%	-8.5%

# (listing goes on)
SMILES,Vaccinia Venus,Vaccinia mCherry
CC(C)C(=O)Nc1cc2c(cc1C(=O)c1ccccc1)OCCO2,-1.3%,x
COc1ccc(C2=CCCC2)c(OC)c1,-7.6%,i
Cc1cc(C)n(CC(=O)O)n1,-8.0%,-13.5%
CNC(=O)NC(=O)COC(=O)c1ccccc1OCc1ccccc1,-0.9%,i
Cc1cc(C)c(S(=O)(=O)c2ccccc2)c(OC(=O)c2ccc(Cl)cc2Cl)n1,-23.2%,-13.8%
CC(C)CCN(C(=S)NC(=O)C1CCCCC1)c1c(N)n(Cc2ccccc2)c(=O)[nH]c1=O,-17.5%,-27.8%
Cc1cccc(N2CCN(C(=O)CCCn3c(=O)c4cccn4c4cccnc43)CC2)c1C,0.5%[7.34 µM],-3.9%[7.34 µM]
Cc1ccn2c(Nc3ccc4c(c3)OCCO4)c(-c3ccc(Cl)s3)nc2c1,-7.0%,-9.8%
COc1ccccc1C(=O)NCC(=O)Nc1ccc2c(c1)OCO2,-5.6%,i
Cc1cccc(NC(=O)c2ccc3c(c2)C(=O)N(Cc2cccnc2)C3=O)c1C,-7.8%,-1.7%
COc1cc(=O)n2c(c1C(=O)N(C)Cc1cscn1)CCN(C(=O)c1ccc(C)c(C)c1)CC2,-3.8%,-12.7%
Cc1onc(-c2c(Cl)cccc2Cl)c1NC(=O)NN(C)c1ccc([N+](=O)[O-])cn1,-7.6%,-9.9%
COc1ccc(NC(=O)C(=O)N/N=C(\C)CC(=O)Nc2cc(C)ccn2)c(OC)c1,-8.9%,-20.2%
O=C(Nc1cccnc1)c1cc(-c2cccc(Cl)c2)on1,-2.0%&-5.1%,-6.6%&-6.6%
CC1=Nc2ccccc2N=C(NC(=O)c2ccccc2)C1c1ccccc1 (centres undefined),-0.7%,-14.9%
CCc1cc(C(=O)Nc2sc(C)c(CC)c2C#N)no1,-3.5%[7.34 µM],-7.6%[7.34 µM]
CCOC(=O)C1CCCN(S(=O)(=O)c2c(C(=O)N3CCCCC3)c(C)n(C)c2C)C1 (centres undefined),-2.2%,-22.0%
C=CCn1cccc(C(=O)Nc2cc(OC)cc(OC)c2)c1=O,-10.4%,i
COC(=O)[C@]1(C)N[C@H](CN(C)S(=O)(=O)c2ccc(C)cc2)[C@@H]2C(=O)N(C)C(=O)[C@@H]21,-2.5%,-4.4%
CC(=O)NC(CC(=O)N(Cc1ccccc1)c1cccc(C)c1)c1ccccc1 (centres undefined),-15.2%,-20.4%
CC(Sc1nc(-c2ccccc2)cc(C(F)(F)F)n1)C(=O)O (centres undefined),-16.1%,-2.7%
COc1cccc(CNC(=O)Cn2cc3c(n2)CCCC3)c1,-7.4%,2.6%
CC(C)(C)NC(=S)NNC(=O)c1ccc2ncccc2c1,-17.1%,-20.0%
CC(=O)c1ccccc1OCCOCCOCCOc1ccccc1C(C)=O,-17.5%,i
CCOC(=O)N1CCN(C(=O)CNS(=O)(=O)c2cccs2)CC1,-6.8%,-10.1%
CCOc1ccccc1CN1CCNC(=O)C1CC(=O)NCc1nccn1CC (centres undefined),-6.1%,-12.8%
O=C(NC1CCCCC1)C(c1ccc(C(F)(F)F)cc1)n1c(=O)c(-c2cc3ccccc3[nH]2)nc2ccccc21 (centres undefined),u,u
CC(=O)Nc1ccc(-c2ccnc3c2CC(C(=O)NCc2ccccc2)O3)cc1 (centres undefined),u,-15.0%
Cc1ccc(C)c(OCc2nnc(NC(=O)c3ccc4c(c3)OCO4)s2)c1,5.2%[7.34 µM],-10.1%[7.34 µM]
O=S1(=O)CCN(Cc2ccccc2Cl)CC1,-2.4%,i
CCCn1c(NCc2cccs2)nc2ccccc21,-25.0%,-15.6%
CCOc1ccc(NC(=O)N(C)CCc2c(C)nn(C)c2C)cc1,-3.4%,-11.3%
COc1cc(C(=O)NC2CCN(C)CC2)ccc1Nc1ncc2c(n1)N(C1CCCC1)CCC(=O)N2C(C)C,u,u
COc1ccc2ccccc2c1CN1CCN(C(=O)c2ccco2)CC1,-8.1%,-5.5%
Cc1ccc(C)c(NC(=O)CN(C)C(=O)c2oc3c(Cl)cccc3c2C)c1,-5.0%,u
O=C(CN(C(=O)c1nsc(Cl)c1Cl)c1ccc(F)cc1)NC1CCCC1,-7.8%,-14.2%
CC(=O)Oc1ccccc1Cn1c(C)c(C(=O)NCc2cccc([N+](=O)[O-])c2)sc1=O,-5.1%,8.5%
COc1cc([N+](=O)[O-])cc(/C=C2/SC(=S)N(Cc3ccccc3)C2=O)c1O,i,298.6%[activator]
Cc1cc(C(=O)COC(=O)CC2Sc3ccccc3NC2=O)c(C)n1-c1cccc(C(F)(F)F)c1 (centres undefined),-5.5%,i
CC(C)(C)C(=O)Nc1cc2nn(-c3ccccc3)nc2cc1Cl,-7.0%,-9.8%
Cc1c2cnn(-c3ccccc3)c(=O)c2c(C)n1C(C)C(=O)Nc1ccc(Br)cc1F (centres undefined),6.0%,-9.7%
CCN(CC)C(=O)c1n[nH]c(=O)c2ccccc12,-5.6%,-6.8%
CCC(CC)C(=O)Nc1cccc(/C(C)=N\NC(=O)c2ccc(C)s2)c1,u,-22.8%
O=C(NC1CC1)c1ccc(CSCc2cccc(F)c2)o1,-14.9%,i
COCCN1CCn2c(nc3cc(NC(=O)c4cccs4)ccc32)C1,-7.9%,i
CCOc1ccccc1Oc1cn[nH]c1-c1ccc(O)cc1O,-19.0%,u
Nc1c(OS(=O)(=O)c2ccccc2)cccc1OS(=O)(=O)c1ccccc1,-22.4%,i
CCCCCOC(=O)CSc1nc2sc3c(c2c(=O)n1Cc1ccccc1)CC(C)(C)OC3,-4.2%,2.9%
CCCc1cc(=O)oc2cc(C)cc(OCC(=O)NCc3cccnc3)c12,4.9%[7.34 µM],-3.6%[7.34 µM]
N#CC1(NC(=O)COC(=O)c2ccc(Cl)nc2)CCCCC1,-7.5%,0.3%
# Later entries
SMILES,Vaccinia Venus,Vaccinia mCherry
Cc1nn(Cc2c(Cl)cccc2Cl)c(C)c1NC(=O)Cn1nc([N+](=O)[O-])c(Cl)c1C,-5.9%,i
Cc1ccc2c(c1)C1(C(=O)N2C)N2CC3(C)CN1CC(C)(C2)C3=O (centres undefined),1.7%,-11.0%
CCOC(=O)c1c(NC(=O)c2cc3n(n2)C(C(F)(F)F)CC(c2ccccc2)N3)sc(C)c1C (centres undefined),u,-1.0%
C=CCn1c(N)c(C(=O)NCc2ccco2)sc1=S,1.2%,-7.6%
COc1ccccc1C(=O)CN1C(=O)NC2(CCCCCC2)C1=O,-16.6%,-22.5%
Cc1cc(C(=O)COC(=O)Cc2n[nH]c(=O)c3ccccc23)c(C)n1-c1cccc(C(F)(F)F)c1,-16.3%,-29.5%
Cc1ccc(C(=O)CN(C(=O)c2ccc(Cl)c(Cl)c2)N2C(=O)C3CCCCC3C2=O)cc1 (centres undefined),-10.9%,-10.5%
O=C(CSCc1ccccc1)Nc1ccc(F)cc1F,-6.8%,-23.4%
COc1ccc(-c2cc(=O)c3c(OC)c(OC)c(OC)c(OC)c3o2)cc1,-9.9%&-7.6%,-17.8%&-7.2%
CC(=O)Nc1ccc2nc3c(=O)n(C)c(=O)n(C)c3nc2c1,-6.0%,-27.4%
O=C(Nc1ccc(-c2nnc(-c3ccccc3)o2)cc1)c1ccc(Br)o1,-7.8%,-10.1%
COc1ccc(N(CC(=O)NC(C)(C)C)S(=O)(=O)c2ccccc2)cc1OC,-11.9%,-11.5%
CC(=O)c1sc(NC(=O)C2CCN(C(=O)c3ccc(F)cc3)CC2)nc1-c1ccccc1,-16.1%,-4.5%
Cc1ccccc1CC1(CO)CCCN(C(=O)CCC(F)(F)F)C1 (centres undefined),-5.8%,-4.8%
O=C(COC(=O)c1ccc(NS(=O)(=O)c2ccc3c(c2)OCCO3)cc1)NC1CCS(=O)(=O)C1 (centres undefined),-5.4%,-13.8%
CC(C)c1ccc(NC(=O)CCc2ccccc2)cc1,u,-23.6%
CC1CSc2nc3sc4c(c3c(=O)n21)CCCC4 (centres undefined),-26.4%,x
Cc1ccc(C)c(NC(=O)c2ccc(OCc3c(C)noc3C)cc2)c1,-13.6%,-4.0%
CCCCN(C)CCNS(=O)(=O)c1ccc2c(c1)n(C)c(=O)c(=O)n2C,-6.1%,-10.8%
O=C(NCC1CCCO1)c1ccc2c(c1)N(Cc1ccccc1)C(=O)CS2=O (centres undefined),0.0%,18.7%
Cc1ccc(-c2cc3nc(NCCOc4ccccc4Cl)n(C)c(=O)c3s2)cc1,-18.8%,i
Cc1cc(C)cc(Cn2c3ccc(NC(=O)NCc4ccc(F)cc4)cc3c(=O)n2C)c1,-10.1%,-4.3%
COc1ccc(/C=C/C(=O)N2CCCc3ccccc32)c(OC)c1,-15.2%,-6.0%
COc1nc(NCC(C)C)nc(Oc2ccc(OCc3ccccc3)nn2)n1,-18.0%,-4.0%
COc1ccc(N2CCN(c3oc(/C=C/c4ccc(F)cc4)nc3C#N)CC2)cc1,-6.2%,i
Cc1ccc(N2C(=O)N(CC(=O)Nc3cccc(Cl)c3)C(=O)C2C)cc1 (centres undefined),-24.3%,-11.8%
CCc1sc(-c2cc3cccc(OC)c3oc2=O)nc1-c1ccccc1,-7.8%,22.8%
Cc1cc(C)n(-c2ccc(C(=O)C(C#N)c3nc4ccccc4n3C)cc2)n1 (centres undefined),-8.7%,i
O=CNC1c2ccccc2CCc2ccccc21,-5.5%,-0.7%
CCOc1ccc(NC(=S)NCCCc2ccccc2)cc1,-5.4%,1.9%
O=C(O)CCc1ccc(-c2ccc(Cl)cc2)n1CC(=O)O,-4.0%,u
CSc1nc2ccsc2c(=O)n1-c1ccccn1,-1.1%,i
CCn1c(SCC(=O)N2CCCC2=O)nc2ccccc21,-11.7%,-1.7%
CCN(c1cccc(C)c1)S(=O)(=O)c1ccc(-n2cccn2)cc1,1.9%,-5.0%
COc1ccc(/C(O)=C/c2nc3ccccc3n(-c3ccccc3)c2=O)cc1,-16.0%,x
CC(Nc1ccc(-c2nc(-c3cccnc3)no2)cc1[N+](=O)[O-])c1ccccc1 (centres undefined),6.3%,3.8%
C=CCn1c(N)c(C(=O)NCCC2=CCCCC2)sc1=S,-10.6%,-16.2%
O=S1(=O)c2cccc3cccc(c23)N1CCBr,-26.5%,u
COCCNC(=O)c1cc(-c2cccc(OC)c2)on1,-7.7%,-3.6%
CC(C)CN1C(=O)c2ccc(NC(=O)c3cccs3)cc2C1=O,-17.8%,-24.4%

# Rewritten with tabs: four of the compounds above.
mol	Vaccinia Venus	Vaccinia mCherry
N#CC1(NC(=O)COC(=O)c2ccc(Cl)nc2)CCCCC1	-7.5%	0.3%
Cc1nn(Cc2c(Cl)cccc2Cl)c(C)c1NC(=O)Cn1nc([N+](=O)[O-])c(Cl)c1C	-5.9%	i
Cc1ccc2c(c1)C1(C(=O)N2C)N2CC3(C)CN1CC(C)(C2)C3=O (centres undefined)	1.7%	-11.0%
CCOC(=O)c1c(NC(=O)c2cc3n(n2)C(C(F)(F)F)CC(c2ccccc2)N3)sc(C)c1C (centres undefined)	u	-1.0%

# Remaining list, next part:
SMILES,Vaccinia Venus,Vaccinia mCherry
CCOC(=O)C(O)(c1ccc(N(CC)S(=O)(=O)c2ccccc2)cc1)C(F)(F)F (centres undefined),-11.3%,-20.4%
COCCCNC(=O)c1cc2cc(Br)ccc2oc1=O,2.2%,-0.3%
Cn1cc(C(=O)N2CCN(c3ccccn3)CC2)c(=O)c2cc(S(=O)(=O)N3CCOCC3)ccc21,-11.7%,-11.0%
Cc1ccc(C(=O)NCN2CCN(c3ccccc3)CC2)cc1,-14.6%,-13.7%
CCn1c(SCC(=O)Nc2nccs2)nnc1-c1cc2cccc(OC)c2o1,-5.3%,i
O=C(Nc1nnc(COc2ccc(F)cc2)s1)Nc1ccccc1F,-3.9%[7.34 µM],i[7.34 µM]
CC1=CC(C)(C)N(C(=O)c2ccc(F)cc2)c2cc3c(cc21)OCO3,-11.5%,i
CN(C)c1ccc(/C=C2\NC(=S)N(Cc3ccccc3)C2=O)cc1,37.6%[activator],u
O=C(NC1CCCCC1)C(c1ccco1)N(C(=O)c1csnn1)c1ccccc1 (centres undefined),-16.4%,i
